MLL AF4-AF9 inh = MLL-AF4/AF9 protein interaction inhibition. AlphaScreen, biotin-AF4 peptide binding to FLAG-AF9. inhibition, % at 10 µM. actives 0.47% (n = 350,000);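 active means every replicate reaching a set inhibition limit, whatever the replicate mean, cut at about 25% in these data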;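 further: 0% = plate neutral control median and 100% = total signal loss; the record names both 10 and 1 µM as test concentration; the first replicate is given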
Target sequence (P42568 whole entry, looked up): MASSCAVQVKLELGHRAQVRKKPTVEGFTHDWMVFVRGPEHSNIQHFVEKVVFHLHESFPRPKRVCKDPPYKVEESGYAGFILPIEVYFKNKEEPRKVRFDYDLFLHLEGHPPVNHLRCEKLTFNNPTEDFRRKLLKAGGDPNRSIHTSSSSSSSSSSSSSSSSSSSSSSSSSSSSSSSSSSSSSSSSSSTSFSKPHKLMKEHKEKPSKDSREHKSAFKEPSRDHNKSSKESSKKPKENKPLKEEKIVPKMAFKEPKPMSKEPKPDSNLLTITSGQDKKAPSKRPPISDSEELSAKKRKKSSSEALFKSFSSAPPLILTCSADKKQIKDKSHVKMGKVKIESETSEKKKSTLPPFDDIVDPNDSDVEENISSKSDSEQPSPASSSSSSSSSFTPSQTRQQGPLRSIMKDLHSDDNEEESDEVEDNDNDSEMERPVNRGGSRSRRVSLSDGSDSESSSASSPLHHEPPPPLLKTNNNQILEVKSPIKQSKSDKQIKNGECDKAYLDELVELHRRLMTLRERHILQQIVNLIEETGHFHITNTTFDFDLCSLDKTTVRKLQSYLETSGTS
rRNA inh HTS = inhibits bacterial ribosomal RNA function over humanized ribosomes; E. coli WT GFP vs humanized-ribosome RFP mutants, fluorescence, 24 h; hits give low values; DMSO median 0, no signal -100; GFP signal change (wild-type ribosome), % (no concentration beside the values); actives 1.6% (n = 350,000);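 active means significant combined selectivity score with lowered wild-type GFP, culture density cut under 30%, mutant RFP and density less affected; inactive means any of these conditions unmet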; further: one replicate is shown; some compounds called inactive have numbers as strong as hits
rRNA inh HTS OD600 = second read-out of rRNA inh HTS, no call of its own (marks repeat the call); OD600 change, %; measured here: OD600 growth;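 optical density of the mix in the first replicate; 0 = DMSO median and -100 = no signal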
rRNA inh HTS RFP = further read-out of rRNA inh HTS, marked with its call; RFP signal change, %; measured here: RFP humanized mutant strains;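 first replicate; 0 = DMSO median and -100 = no signal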
Active calls of the source: *. A portion of the library. The share of hits here may be higher or lower than overall.

SMILES	MLL AF4-AF9 inh	rRNA inh HTS	rRNA inh HTS OD600	rRNA inh HTS RFP
Cc1ccccc1NC(=O)Nc1ccc2c(c1)C(=O)N(C)[C@H]1CC[C@H](CC(=O)NCC3CC3)O[C@@H]1CO2	-2.2	5	3	-0.5
O=C(c1ccc(F)cc1)N1CC(=O)N2[C@H](C1)[C@H](c1ccc(/C=C/c3ccccc3)cc1)[C@@H]2CO	12	3	-30	20
C[C@H](CO)N1C[C@H](C)[C@H](CN(C)Cc2ccc3c(c2)OCO3)Oc2c(NS(=O)(=O)c3cn(C)cn3)cccc2C1=O	-2.2	2	1	1.0
Cc1nn(C)cc1NC(=O)C[C@H]1CC[C@@H]2[C@H](COc3ccc(NC(=O)C4CCOCC4)cc3C(=O)N2C)O1	0.7	5	4	-1.1
Cc1noc(C)c1NC(=O)Nc1ccc2c(c1)CC(=O)N([C@@H](C)CO)C[C@H](C)[C@@H](CN(C)Cc1ccc(C(=O)O)cc1)O2	-1.6	3	3	-0.7
CO[C@H]1CN(C)C(=O)c2cc(NC(=O)C3CC3)ccc2OC[C@@H](C)N(C(=O)c2ccccc2F)C[C@@H]1C	0.5	1	-2	0.0
CCC(=O)N1C[C@@H](C)[C@@H](OC)CN(C)C(=O)c2cc(NS(C)(=O)=O)ccc2OC[C@H]1C	-1.2	1	4	-0.9
O=C(NC1CCCCC1)c1ccc(-c2cn[nH]c2)c2ccoc12	-3.7	-15	-19	-4.9
C[C@H]1CN([C@@H](C)CO)C(=O)c2cc(NC(=O)Nc3ccc(C(F)(F)F)cc3)ccc2O[C@H]1CN(C)C(=O)Nc1ccccc1	0.1	3	-9	0.1
CC(=NNC(=S)N1CC2CCC(CC2)C1)c1ccncn1	0.9	3	9	-2.3

Single records, as listed above:
Cc1ccccc1NC(=O)Nc1ccc2c(c1)C(=O)N(C)[C@H]1CC[C@H](CC(=O)NCC3CC3)O[C@@H]1CO2 is entered as MLL AF4-AF9 inh: -2.2; rRNA inh HTS: 5; rRNA inh HTS OD600: 3; rRNA inh HTS RFP: -0.5
CCC(=O)N1C[C@@H](C)[C@@H](OC)CN(C)C(=O)c2cc(NS(C)(=O)=O)ccc2OC[C@H]1C is entered as MLL AF4-AF9 inh: -1.2; rRNA inh HTS: 1; rRNA inh HTS OD600: 4; rRNA inh HTS RFP: -0.9

Following part.
SMILES	MLL AF4-AF9 inh	rRNA inh HTS	rRNA inh HTS OD600	rRNA inh HTS RFP
O=C(C[C@H]1CC[C@@H](NS(=O)(=O)c2ccccc2F)[C@H](CO)O1)NCCCN1CCOCC1	-1.6	4	7	-0.5
O=C(NCC[C@@H]1CC[C@H](NS(=O)(=O)c2ccc(F)cc2)[C@H](CO)O1)Nc1ccc(F)cc1	15	-3	-11	-2.0
CO[C@H]1CN(C)C(=O)c2cc(NC(=O)c3nc4ccccc4s3)ccc2OC[C@H](C)N(Cc2cccnc2)C[C@@H]1C	7.0	4	-21	30
C[C@@H](O)C#Cc1ccc2c(c1)O[C@H](CN(C)Cc1ccccc1)[C@@H](C)CN([C@@H](C)CO)S2(=O)=O	4.1	-12	-26	9.3
O=C(C[C@H]1CC[C@@H]2[C@H](COC[C@H](O)CN2S(=O)(=O)c2ccccc2F)O1)NCc1ccccc1F	-0.1	-2	1	0.6
COCC#Cc1ccc2c(c1)O[C@@H](CN(C)S(=O)(=O)c1cccc(F)c1)[C@H](C)CN([C@H](C)CO)S2(=O)=O	1.1	-5	-9	3.5
Cc1ccc(S(=O)(=O)N(C)C[C@@H]2Oc3c(NC(=O)Nc4ccc(C(F)(F)F)cc4)cccc3C(=O)N([C@H](C)CO)C[C@@H]2C)cc1	-2.0	-4	0	-1.9
COc1ccc(NC(=O)N(C)C[C@H]2Oc3ccc(NC(=O)Nc4c(C)noc4C)cc3CC(=O)N([C@@H](C)CO)C[C@H]2C)cc1	-6.5	4	4	-0.4
O=C(NCC[C@H]1CC[C@H](NC(=O)C2CC2)[C@H](CO)O1)c1cnccn1	-0.8	3	-6	-2.3
C[C@H](CO)N1C[C@H](C)[C@@H](CN(C)Cc2ccc(-c3ccccc3)cc2)Oc2ccc(NS(=O)(=O)c3ccccc3)cc2C1=O	-1.6	6	-11	7.2
C[C@H](CO)N1C[C@H](C)[C@H](CN(C)C(=O)Nc2ccccc2)OCCCC[C@H](C)Oc2ccc(NC(=O)Nc3ccc(F)cc3)cc2C1=O	0.8	-1	5	-2.6
CO[C@H]1CN(C)C(=O)c2ccc(NC(=O)c3cc(C)on3)cc2OC[C@H](C)N(CC2CC2)C[C@@H]1C	1.0	3	-3	1.1
C[C@H](NC(=O)[C@H]1[C@H](CO)[C@H]2Cn3c(ccc(C4=CCCCC4)c3=O)[C@H]2N1C)c1ccccc1	1.7	-7	-8	0.0
Cc1ccc(OCCNC(=O)c2cccc(S(=O)(=O)N3CCN(Cc4ccccc4)CC3)c2)cc1	8.7	-3	-19	4.1
C[C@@H]1CN([C@H](C)CO)C(=O)c2cccc(NC(=O)CCCCCC(=O)Nc3ccccc3N)c2O[C@@H]1CN(C)CC1CC1	0.1	1	-3	-0.5
CCC(=O)N(C)C[C@@H]1Oc2ncc(C#CC3(O)CCCC3)cc2C(=O)N([C@@H](C)CO)C[C@H]1C	-2.6	3	10	-3.2
C[C@@H]1CN([C@@H](C)CO)C(=O)c2cc(NC(=O)c3ccncc3)ccc2O[C@@H]1CN(C)Cc1ccncc1	-11	1	4	0.2
CC(C)NC(=O)N(C)C[C@H]1Oc2ncc(-c3cncnc3)cc2C(=O)N([C@@H](C)CO)C[C@@H]1C	-1.0	9	9	-2.4
C[C@@H]1CN([C@H](C)CO)S(=O)(=O)c2ccc(C3=CCCCC3)cc2O[C@@H]1CN(C)S(=O)(=O)c1cn(C)cn1	1.3	4	-7	2.7
COc1ccc2c3c(n(C)c2c1)[C@@H](CO)N(C(=O)Nc1ccc(F)cc1)CC31CN(C(=O)NC(C)C)C1	5.9	-1	-2	-3.9
CNC[C@H]1Oc2c(NC(=O)NC3CCCCC3)cccc2C(=O)N([C@@H](C)CO)C[C@H]1C	-1.4	0	3	-2.0
C[C@H](CO)N1C[C@H](C)[C@H](CN(C)S(=O)(=O)c2ccccc2)Oc2ccc(NS(=O)(=O)c3ccc(F)cc3)cc2CC1=O	-2.0	-2	-9	4.0
COC(=O)C[C@@H]1CC[C@H]2[C@H](COc3ccc(NC(=O)Nc4ccccc4C)cc3C(=O)N2C)O1	2.5	1	-1	0.5
CN(C)C(=O)[C@@H]1[C@@H](CO)[C@@H]2Cn3c(ccc(-c4ccccc4)c3=O)[C@H]1N2CCc1ccccc1	-2.0	-2	2	-0.4
Cc1ccc(S(=O)(=O)N(C)C[C@H]2Oc3c(NC(=O)NC(C)C)cccc3C(=O)N([C@H](C)CO)C[C@H]2C)cc1	-2.9	-7	-2	-1.2
COc1ccccc1S(=O)(=O)N[C@@H]1CC[C@H](CCNC(=O)C2CCCCC2)O[C@@H]1CO	0.5	0	2	-0.8
CC1CCCN(c2cccc3c2S(=O)(=O)N(Cc2cccc(F)c2)[C@@H](C)[C@H](c2ccccc2)O3)C1 (some centres not stated)	2.1	33	15	12
Cc1noc(C)c1NC(=O)Nc1ccc2c(c1)C(=O)N([C@@H](C)CO)C[C@@H](C)[C@@H](CN(C)C(=O)NC(C)C)O2	-1.9	0	-3	0.0
Cc1cccc(C)c1NC(=O)Nc1nnc([C@H]2C[C@H](O)[C@@H](CO)O2)s1	-9.8	6	4	-0.9
C[C@@H]1CN([C@H](C)CO)C(=O)Cc2cc(NS(=O)(=O)c3ccccc3)ccc2O[C@H]1CN(C)C(=O)Nc1ccc(F)cc1	-1.3	6	6	2.7
O=C(C[C@@H]1CC[C@@H](NC(=O)C2CC2)[C@@H](CO)O1)NCC1CC1	-1.1	0	0	-1.7
O=C(C[C@@H]1C=C[C@@H](NC(=O)c2ccc3c(c2)OCO3)[C@H](CO)O1)NCc1ccc(F)cc1	-2.6	2	2	0.2
C[C@]12c3[nH]c4cc(-c5ccco5)ccc4c3CCN1C(=O)[C@@H](CC(=O)NCCC1=CCCCC1)C[C@@H]2C(=O)N1CCCCC1	1.6	1	6	20
COc1ccccc1-c1ccc2n(c1=O)C[C@@H]1[C@@H](CO)[C@H](C(=O)NC3CCC3)N(C(C)=O)[C@H]21	-1.2	1	-5	-2.9
C[C@@H]1CN([C@H](C)CO)C(=O)c2cccc(NC(=O)Nc3ccccc3)c2O[C@@H]1CN(C)Cc1ccc2c(c1)OCO2	-9.5	-2	-5	0.6
OC[C@@H]1CN(C2CCCC2)C[C@H](n2cnc3c(NC4CC4)ncnc32)O1	2.3	11	13	2.3
C[C@H](CO)N1C[C@H](C)[C@@H](CN(C)Cc2ccncc2)OCc2cn(nn2)CCCC1=O	-10	0	8	-2.9
COc1cccc(-c2ccc3c(c2)O[C@@H](CN(C)C(=O)C2CCC2)[C@H](C)CN([C@@H](C)CO)S3(=O)=O)c1	2.4	-8	-23	-1.8
N#C[C@@H]1[C@H](c2ccc(C3=CCCCC3)cc2)[C@@H](CO)N1C(=O)c1ccccn1	2.9	1	1	-0.3
CCCNC(=O)C1(C)CCCN(C(=O)Cc2ccc(OC)c(OC)c2)C1 (configuration not stated)	-0.9	4	3	-4.0
CN1CCN(C(=O)C[C@@H]2C[C@@H]3c4cc(NC(=O)CC5CC5)ccc4O[C@@H]3[C@@H](CO)O2)CC1	-4.9	0	0	0.4
C[C@H](CO)N1C[C@H](C)[C@@H](CN(C)C(=O)c2ccccc2F)Oc2ncc(C#Cc3ccccc3)cc2C1=O	0.8	0	-20	18
COc1ccc(CN2CC3(CCN(C(=O)c4ccccc4)CC3)c3c([nH]c4cc(OC)ccc34)[C@@H]2CO)cc1	-1.5	-1	-2	-0.4
O=C(C[C@@H]1CC[C@H](NC(=O)Nc2ccc(C(F)(F)F)cc2)[C@H](CO)O1)NCc1ccccn1	0.2	0	-1	-0.6
CN1C(=O)c2cc(NS(=O)(=O)c3ccc(Cl)cc3)ccc2OC[C@@H]2O[C@H](CC(=O)N3CCc4ccccc4C3)CC[C@@H]21	-0.1	-7	-8	2.4
O=C(C1CCCCC1)N1C[C@@H]2[C@H](c3ccccc31)[C@H](CO)N2CC1CCOCC1	-0.1	1	4	-5.6
O=C(C1CCC1)N1CC[C@@H]2[C@@H](CO)Nc3ccc(Br)cc3[C@@H]21	1.3	-4	-7	-6.7
CCCCC[C@H]1CCCCC[C@@H](O)C[C@@H](O)[C@@H](O)/C=C/C(=O)O1	1.1	4	0	0.0
C[C@H](CO)N1C[C@H](C)[C@H](CN(C)S(=O)(=O)c2ccc(C#N)cc2)Oc2ncc(-c3cccc(C(F)(F)F)c3)cc2C1=O	-3.6	5	10	-5.0
C[C@@H]1CN([C@@H](C)CO)C(=O)Cc2cc(NC(=O)C3CCCCC3)ccc2O[C@@H]1CN(C)S(=O)(=O)c1ccc(F)cc1	-7.4	-3	-12	0.6
Next part.
SMILES	MLL AF4-AF9 inh	rRNA inh HTS	rRNA inh HTS OD600	rRNA inh HTS RFP
C[C@@H]1CCCCO[C@@H](CN(C)CC2CC2)[C@H](C)CN([C@@H](C)CO)C(=O)c2cc(NC(=O)CCC(F)(F)F)ccc2O1	-6.5	1	-2	-0.8
COc1ccccc1Cc1c(C2CCCCC2)nc2ccc(Cl)cn12	6.6	-3	-8	4.3
CCNC(=O)[C@@H]1[C@@H](CO)[C@@H]2Cn3c(ccc(/C=C/c4ccccc4)c3=O)[C@H]1N2C(=O)C1CCCC1	-13	-3	-10	-0.9
O=C(C[C@H]1C=C[C@H](NC(=O)c2cccnc2)[C@H](CO)O1)NCc1ccncn1	-2.8	2	8	-0.3
COc1ccc2c3c(n(C)c2c1)[C@H](CO)N(C(=O)NC(C)C)CC31CN(C(=O)NC(C)C)C1	1.7	3	9	-2.7
C[C@H](CO)N1C[C@H](C)[C@@H](CN(C)C(=O)CCC(F)(F)F)OCCCC[C@H](C)Oc2ccc(NS(=O)(=O)c3ccc(F)cc3)cc2C1=O	2.9	-3	-1	0.6
C[C@@H]1CCCCO[C@@H](CN(C)C)[C@@H](C)CN([C@H](C)CO)C(=O)c2cc(NC(=O)C3CCCCC3)ccc2O1	-1.7	2	3	-1.9
CS(=O)(=O)N1[C@@H]2c3ccc(-c4ccc(F)cc4)c(=O)n3C[C@H]1[C@H](CO)[C@H]2C(=O)NCC1CC1	-15	2	6	-1.3
O=C(Nc1cccc(F)c1)N1CCCCN2[C@H](C1)[C@H](c1ccc(C#Cc3cccnc3)cc1)[C@@H]2CO	-2.0	-9	-22	-2.2
C[C@@H]1CN([C@@H](C)CO)C(=O)c2cc(C3=CCCC3)cnc2O[C@@H]1CN(C)Cc1ccccn1	-4.3	4	-3	-1.8
CNC[C@H]1Oc2cc(C#CC3(O)CCCC3)ccc2S(=O)(=O)N([C@H](C)CO)C[C@H]1C	0.7	3	9	-0.7

Five of the compounds above, in CSV form.
structure,MLL AF4-AF9 inh,rRNA inh HTS,rRNA inh HTS OD600,rRNA inh HTS RFP
C[C@@H]1CCCCO[C@@H](CN(C)C)[C@@H](C)CN([C@H](C)CO)C(=O)c2cc(NC(=O)C3CCCCC3)ccc2O1,-1.7,2,3,-1.9
C[C@@H]1CN([C@@H](C)CO)C(=O)c2cc(C3=CCCC3)cnc2O[C@@H]1CN(C)Cc1ccccn1,-4.3,4,-3,-1.8
O=C(C[C@H]1C=C[C@H](NC(=O)c2cccnc2)[C@H](CO)O1)NCc1ccncn1,-2.8,2,8,-0.3
COc1ccccc1Cc1c(C2CCCCC2)nc2ccc(Cl)cn12,6.6,-3,-8,4.3
O=C(Nc1cccc(F)c1)N1CCCCN2[C@H](C1)[C@H](c1ccc(C#Cc3cccnc3)cc1)[C@@H]2CO,-2.0,-9,-22,-2.2
